# Source: PubChem BioAssay (The Scripps Research Institute Molecular Screening Center)
# PRMT1 FP inh: PRMT1 methyltransferase inhibitors, primary screen, biochemical, fluorescence polarization; AID 652257, 2013; recombinant PRMT1, activity-based probe fluorescence polarization; Protein arginine N-methyltransferase 1 (Homo sapiens), Q99873; 370,000 compounds, 1.3% hits; inhibition, % at 2.79 µM;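 active = inhibition above about 21% made by adding two undisclosed values, limit read from the data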
# TCR-CD3 inh: inhibitors of human TCR-CD3 interaction, primary screen, biochemical, fluorescence, TAMRA-labeled TCR probe | T-cell receptor (TCR) | inhibition, % at 9.4 µM | 360,000 compounds, 0.37% hits | AID 651800, 2012; in the data active = inhibition above about 19%;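 note: recombinant mutant TCR 2C K166C tagged with TAMRA read by polarization; 0% = receptor in buffer alone and 100% = receptor with positive control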
# LEDGF integ inh: blockers of LEDGF/p75-dependent integrase strand transfer – biochemical, TR-FRET, high throughput, primary screen; HIV-1 integrase (with human LEDGF/p75); 370,000 compounds, 0.64% hits; inhibition, % at 3.7 µM; TR-FRET IN-LEDGF/p75 DNA integration, Eu/Cy5;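 active = inhibition above the screen-wide mean plus 3 SD, cut at about 13% in these data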;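 note: signal is the Cy5 over europium emission ratio at 671 and 618 nm; 0% = plate median of compound wells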
# UHRF1 binding: UHRF1 methylated DNA binding inhibitors, primary screen, counter-screen for MBD2 inhibitor project, biochemical, TR-FRET, human UHRF1, single concentration; UHRF1 binding to methylated oligo; inhibition, % at 4.4 µM; 370,000 compounds, 0.75% hits; AID 687016, 2013; in the data active = inhibition above about 21%;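 note: UHRF1 SRA domain binding a hemimethylated CpG hairpin DNA probe; 0% = median of test compound wells and 100% = reference inhibitor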
# Target sequence (Q96T88 whole entry, looked up, the tested form may be a part): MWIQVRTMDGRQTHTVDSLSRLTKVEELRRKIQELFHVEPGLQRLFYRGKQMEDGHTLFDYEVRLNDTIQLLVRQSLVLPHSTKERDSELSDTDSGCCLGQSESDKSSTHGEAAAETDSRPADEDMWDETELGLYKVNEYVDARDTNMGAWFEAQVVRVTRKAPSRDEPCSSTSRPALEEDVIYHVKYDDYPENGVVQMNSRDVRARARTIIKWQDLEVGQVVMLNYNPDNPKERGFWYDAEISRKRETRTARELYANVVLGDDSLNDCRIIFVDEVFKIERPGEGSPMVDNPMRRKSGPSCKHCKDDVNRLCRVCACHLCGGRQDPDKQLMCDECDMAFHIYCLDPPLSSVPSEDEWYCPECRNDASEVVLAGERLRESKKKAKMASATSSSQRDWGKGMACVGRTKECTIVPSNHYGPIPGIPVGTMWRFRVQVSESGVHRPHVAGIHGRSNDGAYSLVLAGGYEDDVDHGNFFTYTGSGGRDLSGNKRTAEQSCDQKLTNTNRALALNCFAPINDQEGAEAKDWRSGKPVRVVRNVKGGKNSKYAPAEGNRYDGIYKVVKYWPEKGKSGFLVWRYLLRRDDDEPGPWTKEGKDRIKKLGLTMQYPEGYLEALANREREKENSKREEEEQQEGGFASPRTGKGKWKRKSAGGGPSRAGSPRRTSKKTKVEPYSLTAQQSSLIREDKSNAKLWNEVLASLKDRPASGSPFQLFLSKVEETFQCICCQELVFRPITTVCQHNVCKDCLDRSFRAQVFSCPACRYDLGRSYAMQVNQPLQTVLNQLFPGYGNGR
# DDE Tn7 FP inh: inhibitors of Tn7 peptide binding to fibrin DD(E), primary screen, biochemical, fluorescence polarization, human fibrin, Tn7 probe | Fibrinogen beta chain (Homo sapiens), P02675 | FP displacement of FITC-Tn7 peptide from fibrin DD(E); 0% = median of compound wells per plate | inhibition, % at 8.3 µM | 370,000 compounds, 0.13% hits;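 active = inhibition above the mean of compounds falling within the control limits plus 3 SD of them, cut at about 14% in these data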;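 note: 0% = plate median of compound wells and 100% = 10 µM Aha-Tn7 peptide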
#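 Assay system: Human fibrin DD(E) protein | Medium: Tris buffer with calcium and detergent, pH 7.8 | Reagent: 0.1 µM fluorescent Tn7 | Compound dosing: Single point at 8.3 µM | Times: 10 min preincubation, 3 h with tracer, room temperature | Detection: Fluorescence polarization of the labelled Tn7 tracer | Controls: Aha-Tn7 high control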
# MBD2 DNA inh: inhibitors of MBD2 binding to methylated DNA, primary screen, biochemical, TR-FRET, DNA-binding domain, human | Methyl-CpG-binding domain protein 2 (Homo sapiens), Q9UBB5 | MBD2 binding to methylated oligonucleotide | inhibition, % at 4.4 µM | 370,000 compounds, 0.31% hits; in the data active = inhibition above about 13%
# Tn6 DDE FP: inhibitors of Tn6 peptide binding to fibrin DD(E), primary screen, biochemical, fluorescence polarization, human fibrin, Tn6 probe; Fibrinogen beta chain (Homo sapiens), P02675; Fibrin DD(E) TRITC-Tn6 fluorescence polarization displacement; inhibition, % at 8.3 µM; 370,000 compounds, 0.21% hits;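 active = inhibition above a per-campaign cutoff: mean of compounds within control limits plus 3 SD, cut at about 15% in these data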;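 note: 0% = median of all compound wells on the plate and 100% = blocking peptide control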
# TDP2 absorb: human TDP2 enzyme inhibitors, primary screen, biochemical, epi absorbance, recombinant enzyme; T5PNP hydrolysis, p-nitrophenol absorbance 415 nm; inhibition, % at 12.8 µM; 370,000 compounds, 0.34% hits; AID 720702, 2013;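 active = inhibition above the mean of all tested compounds plus 3 SD, set per campaign, cut at about 25% in these data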;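 note: 0% = DMSO with enzyme and 100% = buffer with substrate but no TDP2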
#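 Incubation: 2 h at 37 °C; Test system: recombinant human TDP2; Quantity: enzyme 120 nM; Read-out basis: percent inhibition; Medium: 50 mM Tris-HCl pH 7.5 with Mg2+, KCl, DTT, BSA; Repeats: single replicate; Compound: 12.8 µM single point, 1% DMSO; Signal: epi absorbance; Reagent: 5 mM T5PNP chromogenic substrate; Benchmarks: no-enzyme high, DMSO-plus-enzyme low.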
# SIAE inh: human SIAE inhibitors, primary screen, biochemical, fluorescence polarization, FP-Rh probe, 1536-well HTS; Sialate O-acetylesterase (Homo sapiens), Q9HAT2; SIAE FP-Rh probe binding; inhibition, % at 9.66 µM; 370,000 compounds, 0.69% hits;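 active = inhibition above a cutoff: mean of compounds within the control limits plus 3 SD of those, cut at about 17% in these data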;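 note: 0% = plate median of compound wells and 100% = probe without SIAE protein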
# * hit, by the source's call. The list is partial; rates above refer to the full screens.
# Results follow in this order: PRMT1 FP inh | TCR-CD3 inh | LEDGF integ inh | UHRF1 binding | DDE Tn7 FP inh | MBD2 DNA inh | Tn6 DDE FP | TDP2 absorb | SIAE inh
O=S(=O)(Nc1ccc(S(=O)(=O)N2CCCCC2)cc1)c1cccs1
→ -1.9 | 2.7 | 0.7 | 1.4 | 9.1 | -2.3 | 8.9 | 7.9 | -5.9
COc1ccc(NC(=S)Nc2ccccc2)cn1
→ -4.1 | 1.2 | -0.8 | 0.8 | -4.7 | -1.9 | -4.3 | 7.6 | 8.7
O=c1c2cc(-c3ccccc3)sc2nc2n1N=C(c1cccs1)CS2
→ -2.4 | 5.6 | 0.1 | -1.7 | 7.3 | 0.1 | 1.5 | 19.8 | 0.0
Nc1nc(=O)n(C2CC(O)C(CO)O2)cc1F (centres undefined)
→ 0.1 | 0.9 | 1.9 | 2.8 | -4.9 | 2.1 | 5.6 | 2.6 | 0.0
O=C(CCN1CCN(c2ccccc2)CC1)c1ccc(Cl)cc1
→ 15.3 | -2.1 | 3.6 | 2.7 | 0.9 | -1.6 | -0.6 | 3.7 | -2.8
Cn1c(CCN2CCN(c3ccccc3)CC2)nc2cc(NC(=O)c3ccco3)ccc21
→ -4.7 | 6.0 | -2.5 | 0.0 | 0.9 | -2.7 | 1.8 | -11.6 | -2.6
COc1cc2ccccc2cc1C(=O)Nc1ccc(Cc2ccncc2)cc1
→ 3.6 | -2.6 | -1.2 | 1.9 | 3.9 | -0.3 | 4.5 | 0.0 | -12.7
Cc1ccc(S(=O)(=O)N(c2nc(NC(C)C)nc(NC(C)C)n2)n2cnnc2)cc1
→ -0.5 | -3.0 | -0.9 | -4.8 | 1.7 | 4.8 | 7.1 | 6.3 | 3.8
Cc1ccccc1CNc1ccc(C(CC(N)=O)NC(=O)c2ccccc2)cc1[N+](=O)[O-] (centres undefined)
→ -0.1 | 2.7 | 0.5 | -1.6 | 0.3 | -4.7 | 8.8 | 8.2 | -13.4
CC1(C)C([N+](=O)[O-])C(c2ccccc2O)NC(c2ccccc2O)C1[N+](=O)[O-] (centres undefined)
→ 6.9 | -1.8 | -7.9 | 5.4 | -8.4 | 4.0 | -7.0 | -1.4 | -9.6

# Brought forward from above: three compounds, then new ones.
# Results follow in this order: PRMT1 FP inh | TCR-CD3 inh | LEDGF integ inh | UHRF1 binding | DDE Tn7 FP inh | MBD2 DNA inh | Tn6 DDE FP | TDP2 absorb | SIAE inh
Cc1ccc(S(=O)(=O)N(c2nc(NC(C)C)nc(NC(C)C)n2)n2cnnc2)cc1
→ -0.5 | -3.0 | -0.9 | -4.8 | 1.7 | 4.8 | 7.1 | 6.3 | 3.8
Cc1ccccc1CNc1ccc(C(CC(N)=O)NC(=O)c2ccccc2)cc1[N+](=O)[O-] (centres undefined)
→ -0.1 | 2.7 | 0.5 | -1.6 | 0.3 | -4.7 | 8.8 | 8.2 | -13.4
CC1(C)C([N+](=O)[O-])C(c2ccccc2O)NC(c2ccccc2O)C1[N+](=O)[O-] (centres undefined)
→ 6.9 | -1.8 | -7.9 | 5.4 | -8.4 | 4.0 | -7.0 | -1.4 | -9.6
CC(=O)c1ccc(NC(=O)NNS(=O)(=O)c2ccc([N+](=O)[O-])cc2)cc1
→ 5.8 | 1.7 | -3.1 | 5.9 | 6.5 | 8.0 | -5.6 | -2.3 | 3.3
CCn1c2ccccc2c2cc(NC(=O)C(C)C)ccc21
→ -0.7 | 5.3 | -1.9 | 2.0 | -0.5 | 4.0 | 11.9 | 0.6 | -0.8
CCc1nc2ccc(C(=O)N3CCN(c4cc(C)ccc4C)CC3)cc2nc1CC
→ -1.5 | -6.4 | -0.8 | -2.5 | 7.3 | -7.6 | 8.2 | -5.0 | 7.7
Nc1c(SCCC(=O)O)ccc2c1C(=O)c1ccccc1C2=O
→ -0.2 | 17.2 | -2.0 | -12.3 | 1.7 | -16.3 | 49.6* | 4.0 | -29.6
Cc1ccc(CC2CC(=O)N(c3ncccn3)C2=O)cc1 (centres undefined)
→ -3.5 | -4.0 | 2.2 | -2.0 | -6.0 | 0.8 | 0.8 | -3.9 | -3.9
O=C(NC1=NCCS1)c1cc(-c2ccc(-c3ccccc3)cc2)nc2ccccc12
→ -3.7 | 4.3 | 1.8 | -2.7 | -4.4 | -2.8 | 3.9 | 5.8 | -53.8
Cc1ccccc1NC(=O)Nc1ccccc1N1CCCCC1
→ -0.1 | -4.1 | -1.4 | -3.2 | -1.7 | -0.4 | 6.2 | 10.3 | 4.2
CC(C(=O)N1CCc2ccccc2C1)N1C(=O)c2ccccc2C1=O (centres undefined)
→ -2.4 | 2.5 | 0.9 | -0.1 | 3.5 | -1.3 | -0.2 | 3.8 | -3.7
Cc1cnc(CN(C)C(=O)c2ccc3oc(Cc4ccccc4)nc3c2)[nH]1
→ -4.0 | 8.1 | 0.3 | 0.3 | -3.4 | 1.1 | 8.3 | 3.4 | 2.1
Cc1ccc(-c2nc3[nH]c(=O)cc(NC(=O)C(C)C)n3n2)cc1
→ -4.8 | 6.7 | -4.5 | -2.6 | -2.3 | -0.4 | -1.3 | 10.2 | 4.9
Cn1c(Nn2cnnc2)nc2ccccc21
→ -2.2 | 3.0 | 0.5 | -2.3 | -6.0 | 3.9 | 8.8 | -2.8 | -4.5
Cc1cccc(C(=O)OC2CCN(C)CC2)c1
→ 0.6 | -1.7 | -0.6 | 1.5 | 4.8 | 1.6 | -5.7 | 6.9 | 7.0
COc1ccccc1C(=O)Nc1ccc2ccccc2c1
→ 1.1 | 0.9 | -4.3 | -3.0 | -4.7 | 1.5 | 5.0 | 7.2 | -2.9
C/C(=N\NC(=O)CCn1nc(C)cc1C)C(C)(C)C
→ 3.9 | -4.2 | -1.2 | 1.6 | 2.8 | 6.6 | 1.5 | -9.1 | -8.8
Cc1nc(NS(=O)(=O)c2ccccc2)sc1NC(=O)OC(C)C
→ -2.1 | 4.2 | -2.1 | -0.7 | -0.5 | -1.8 | -3.0 | -2.7 | 3.6
O=C(COc1ccccc1[N+](=O)[O-])Nc1ccc(Br)cc1
→ 4.1 | -4.4 | -2.9 | -1.2 | -3.5 | 0.8 | -4.3 | 6.4 | 4.3
O=C1CSc2cc(Cl)ccc2N1
→ 8.5 | 5.2 | 2.7 | -2.5 | -3.8 | -2.2 | 1.3 | -9.6 | 2.2
CCn1c(CNc2ccc(OC)cc2)nnc1SCC(=O)N1CCCc2ccccc21
→ 5.0 | -1.0 | -1.2 | 2.8 | 3.0 | 8.0 | -8.2 | -5.3 | 2.5
O=C(N/N=C/c1ccc(O)c(O)c1)c1ccc(CSc2cccc3cccnc23)cc1
→ 7.1 | 16.1 | -3.8 | -1.4 | -8.7 | 4.2 | -11.4 | -4.5 | 41.5*
CCOc1cc(/C=N/NC(=O)c2cccc(S(=O)(=O)N3CCCC3)c2)ccc1OCC(=O)N(C)C
→ 0.3 | -4.0 | 1.3 | -2.6 | -5.5 | -0.3 | -6.3 | 0.3 | -0.3

# Continued:
compound	PRMT1 FP inh	TCR-CD3 inh	LEDGF integ inh	UHRF1 binding	DDE Tn7 FP inh	MBD2 DNA inh	Tn6 DDE FP	TDP2 absorb	SIAE inh
O=C(COC(=O)CCc1ccccc1)Nc1ccc(F)cc1Cl	-0.8	-7.9	-1.2	-0.1	-8.1	-0.9	1.9	-1.1	3.8
CCC(=O)N1CCc2cc(S(=O)(=O)NCCC(=O)N3CCN(c4cccc(C)c4)C(C)C3)ccc21 (centres undefined)	-2.1	4.9	2.4	-4.5	0.7	-5.9	-3.1	-1.0	9.7
O=C(CNC(=O)c1cccc([N+](=O)[O-])c1)OCCCC(=O)c1ccc(F)cc1	2.3	-2.7	-3.3	2.2	-4.7	-1.3	-1.7	8.4	2.6
O=C(CNC1CCCC1)Nc1ccc(N2CCCCCC2)cc1	0.5	3.8	-2.8	1.7	3.2	0.1	-1.8	-7.3	4.7
CCOC(=O)CN1CC23C=CC(O2)C(C(=O)NC2CCCCC2)C3C1=O (centres undefined)	0.2	0.2	1.9	0.6	-2.5	-0.6	5.8	6.9	-1.3
O=C(C1CCN(S(=O)(=O)c2ccccc2F)CC1)N1CCN(Cc2ccc3c(c2)OCO3)CC1	-0.9	3.0	3.8	-2.0	2.7	-2.2	1.5	1.7	-3.2
Cc1cc(C)nc(N/N=C/C2=C(N3CCOCC3)C(=C/c3ccccc3)/CC2)n1	12.2	5.1	2.6	-3.6	-2.0	-3.4	4.7	1.4	9.5
CC(C)CCN1CCN=C1N(C)C	-0.5	0.5	2.4	-3.0	-8.2	-5.6	1.8	-8.4	2.0
CC(O)(C(=O)c1ccccc1)c1ccccc1 (centres undefined)	-0.3	-4.0	-4.8	3.1	0.1	-1.5	-4.2	2.4	-3.1
COC(=O)C1=C(C)N(C(C)c2ccccc2)C(=O)C1 (centres undefined)	-2.4	3.4	0.8	3.2	6.6	5.0	9.7	3.6	3.4
C/C(N)=C(/C#N)C(=O)COC(=O)CNC(=O)c1ccc(Cl)cc1Cl	-1.1	-1.4	-2.7	-2.5	-3.6	1.5	1.8	4.8	5.4
Cc1ccccc1NC(=S)N(CCCN1CCOCC1)Cc1cccnc1	-2.1	3.2	-3.1	2.6	3.9	-1.4	0.4	0.3	1.1
COc1ccc(CCN(C)C(=O)c2c(C)nn(CC(C)C)c2Cl)cc1OC	-0.5	3.8	0.2	-0.2	-5.1	-0.1	-2.1	-4.9	4.6
O=C(c1ccc(Br)cc1)c1cc(-c2ccccn2)c(N2CCOCC2)s1	6.3	-0.7	-2.5	1.9	4.9	7.2	-4.8	-3.3	-6.4
O=C(Nc1nc2ccc(Cl)cc2s1)C1CCCO1 (centres undefined)	-0.7	4.9	-0.3	-1.1	-9.3	-0.6	0.9	-1.4	-0.7
COc1ccc([C@H]2CC(=O)C=C(/C=C/c3ccccc3)C2)cc1	-1.7	2.4	1.7	-4.8	1.8	3.5	11.8	-0.9	-2.4
CCCCn1c(N)c(N(CC(C)C)C(=O)c2ccc(S(=O)(=O)N3CCCCC3)cc2)c(=O)[nH]c1=O	2.0	-1.6	0.6	1.1	4.0	-4.0	-1.5	2.6	4.4
COc1cc(NS(C)(=O)=O)c(OC)cc1NC(=O)c1cccc(F)c1	-1.9	-1.3	-1.4	-1.8	-2.7	-1.2	-3.0	9.2	10.1
COC(=O)c1cc(CSc2nc3ccc(C)cc3[nH]2)oc1C	-0.5	7.7	0.2	-1.5	1.4	4.8	7.6	-6.8	-1.8
COc1cccc(CN(C)CC(=O)Nc2cccc(C(F)(F)F)c2)c1OC	-0.1	1.7	2.3	-2.0	-6.0	-1.2	3.3	6.0	5.6
